Bioassay records from PubChem.
FGF22 binding: binders of recombinant human FGF22 by thermal shift; Q9HCT0; SYPRO orange fluorescence; percent of sucrose octasulfate shift, DMSO zero; calls only at 9.99 µM; 340,000 tested, 1.5% active; AID 651658;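 active means melting point raised past a set limit in the mean and every replicate; inconclusive means no clear call; three in four hits are not shown here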
Target sequence (Q9HCT0 whole entry, looked up): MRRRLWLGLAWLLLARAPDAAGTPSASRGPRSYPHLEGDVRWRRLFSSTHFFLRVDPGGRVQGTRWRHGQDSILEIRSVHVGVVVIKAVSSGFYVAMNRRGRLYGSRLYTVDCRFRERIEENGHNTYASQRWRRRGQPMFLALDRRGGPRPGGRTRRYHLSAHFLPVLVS
T cruzi repl: blocks replication of Trypanosoma cruzi. T. cruzi beta-gal in NIH3T3, luminescence, 90 h. inhibition, % (test concentration not listed). 300,000 tested, 1.4% active. AID 1885;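 active means mean inhibition across valid replicates above about 55%, limit read from the data; inconclusive means mean below that limit but half or more replicates reach it; inactive means mean below it, under half of replicates reach it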;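 further: signal also drops with host cell toxicity which is not excluded here; 0% = plate median of DMSO wells and 100% = zero luminescence signal; higher percent means less beta-gal luminescence so fewer parasites; stock transfer was 50 nL into about 50 µL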
Beta apoptosis: beta cell apoptosis inhibition; INS-1E cytokine-induced death, ATP luminescence, 48 h; percent of positive-control rescue, neutral wells zero; protection from apoptosis, % (concentration not given with the values); 300,000 tested, 0.8% active; AID 435005;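 active means all replicates at 75% or more, or half of them and the mean; inconclusive means half reach 75% but not the mean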;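 further: 0% = cytokine-treated negative control wells and 100% = positive control rescue; higher means more ATP so stronger rescue from cytokine killing; wells of about 40 µL received 100 nL stock; the first replicate is given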
RanGTP-Imp inh: disruptors of Ran-importin-beta complex formation – biochemical, FRET, CFP-Ran, YFP-importin-beta, homogeneous, primary screen; 300,000 tested, 1.1% active; cell-free CFP-Ran/YFP-importin-beta FRET ratio; inhibition, % (test concentration not listed);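 active means most replicates above 15%; inconclusive means exactly half above 15%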;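 further: 0% = DMSO wells and 100% = Ran loaded with GDP instead of GTP; wells of about 40 µL received 100 nL stock; the first replicate is given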
Calb FLC: C. albicans growth modulation with fluconazole | C. albicans CaCi-2 (fluconazole-resistant clinical isolate) + fluconazole, Alamar Blue growth, 48 h | growth inhibition, % (test concentration not listed) | 300,000 tested, 0.57% active | AID 1979;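 active means most replicates above 75%; inconclusive means exactly half above 75%; inactive means most below 75%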;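 further: all wells also contain fluconazole at 8 µg/ml as a sub-toxic cotreatment; 0% = median of DMSO wells and 100% = median of geldanamycin control wells; wells of about 8 µL received 7.5 nL stock; the first replicate is given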
ALR inh: blocks human ALR sulfhydryl oxidase activity; 290,000 tested, 3.8% active; AID 485317; purified ALR, DTT oxidation, H2O2 HRP-luminol luminescence; inhibition, % (no concentration beside the values);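 active means mean and each replicate at 75% or more; inconclusive means only one of the two met; inactive means neither met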;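 further: stock transfer was 7.5 nL into about 7.5 µL; 0% = neutral wells and 100% = wells with inactivated enzyme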
Target sequence (P55789 whole entry, looked up): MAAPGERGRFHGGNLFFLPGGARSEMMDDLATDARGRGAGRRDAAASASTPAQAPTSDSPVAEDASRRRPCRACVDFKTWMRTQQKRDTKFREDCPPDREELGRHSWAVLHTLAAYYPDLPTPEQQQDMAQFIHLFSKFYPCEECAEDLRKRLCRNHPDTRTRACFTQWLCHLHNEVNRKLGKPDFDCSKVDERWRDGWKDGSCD
AF4-AF9 inh: blocks AF4 peptide binding to human AF9; P42568; AlphaScreen, biotin-AF4 peptide binding to FLAG-AF9; inhibition, % at 10 µM; 350,000 tested, 0.47% active;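 active means every replicate reaching a set inhibition limit, whatever the replicate mean, cut at about 25% in these data; inconclusive means mean inhibition reaches that limit but some replicates miss it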;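 further: 0% = plate neutral control median and 100% = total signal loss; the record names both 10 and 1 µM as test concentration; the first replicate is given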
Target sequence (P42568 whole entry, looked up): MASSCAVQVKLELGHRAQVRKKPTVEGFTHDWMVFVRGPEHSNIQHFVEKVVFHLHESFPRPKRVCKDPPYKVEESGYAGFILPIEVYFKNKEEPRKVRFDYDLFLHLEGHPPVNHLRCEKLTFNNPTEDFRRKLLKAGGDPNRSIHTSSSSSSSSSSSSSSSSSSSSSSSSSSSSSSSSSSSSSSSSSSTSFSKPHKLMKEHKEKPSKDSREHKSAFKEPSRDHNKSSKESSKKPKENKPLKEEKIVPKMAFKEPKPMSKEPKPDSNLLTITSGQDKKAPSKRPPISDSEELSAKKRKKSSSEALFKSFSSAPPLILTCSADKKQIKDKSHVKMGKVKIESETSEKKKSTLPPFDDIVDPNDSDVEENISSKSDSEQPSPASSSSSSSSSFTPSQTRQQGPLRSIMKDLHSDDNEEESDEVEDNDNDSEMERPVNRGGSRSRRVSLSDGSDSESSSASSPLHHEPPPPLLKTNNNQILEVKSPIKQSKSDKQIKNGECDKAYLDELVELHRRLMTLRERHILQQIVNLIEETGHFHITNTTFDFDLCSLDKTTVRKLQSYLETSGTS
rRNA inh HTS: selective bacterial rRNA inhibition in E. coli | E. coli WT GFP vs humanized-ribosome RFP mutants, fluorescence, 24 h; active compounds read low; DMSO median 0, no signal -100 | GFP signal change (wild-type ribosome), % (test concentration not listed) | 350,000 tested, 1.6% active;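 active means significant combined selectivity score with lowered wild-type GFP, culture density cut under 30%, mutant RFP and density less affected; inactive means any of these conditions unmet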; further: one replicate is shown; some compounds called inactive have numbers as strong as hits
rRNA inh HTS OD600: second read-out of rRNA inh HTS, no call of its own (marks repeat the call); OD600 change, %; measured here: OD600 growth;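 optical density of the mix in the first replicate; 0 = DMSO median and -100 = no signal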
rRNA inh HTS RFP: recorded beside rRNA inh HTS, whose call it bears; RFP signal change, %; measured here: RFP humanized mutant strains;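 first replicate; 0 = DMSO median and -100 = no signal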
Starred values were filed as active, the others as inactive; i = inactive; ? = inconclusive; . = not tested or not shown; + = active, no number; & = joins results of further samples. A portion of the library; the hit share may differ from the screen's.

SMILES	FGF22 binding	T cruzi repl	Beta apoptosis	RanGTP-Imp inh	Calb FLC	ALR inh	AF4-AF9 inh	rRNA inh HTS	rRNA inh HTS OD600	rRNA inh HTS RFP
CC(NC(=O)Nc1cccc(F)c1)c1ccc2c(c1)OCO2 (centres undefined)	i	-1	-7	4.7	-5	-6	1.5	-7	-11	-7.6
O=C(COC(=O)c1ccccc1Sc1ccc(C(F)(F)F)cc1[N+](=O)[O-])NC(=O)NC1CCCC1	i	46	0	?	0	-16	9.7	5	0	-2.2
NC(=O)c1ccc(-c2ccccc2F)cc1	i	-30	-6	1.3	0	.	-0.2	1	1	-0.9
O=C(NC1CCCC1)c1c(O)nc2sccn2c1=O	i	-1	.	3.3	10	-1	-0.6	-5	3	-4.2
CCS(=O)(=O)N1Cc2ccccc2CC1C(=O)Nc1nc(C)cs1 (centres undefined)	i	-1	-4	-4.0	-14	-13	1.2	14	-3	11
COc1ccc(OCC(=O)OC(C)CN2CCCCC2)cc1 (centres undefined)	i	-5	-4	1.9	-7	-16	0.4	16	10	2.6
O=C(CC1C[C@H](C(=O)N2CCOCC2)[C@@]2(CCC3CCCC3)c3[nH]c4ccccc4c3CCN2C1=O)NCCCn1ccnc1 (some centres undefined)	i	.	-35	.	.	.	8.1	-4	-7	-3.5
CCOC(=O)C1CCCN(C(=O)c2cc(S(=O)(=O)N(C)C)ccc2N2CCCC2)C1 (centres undefined)	i	6	4	1.6	-5	.	-0.3	-1	3	-2.8
Cc1coc(C)c1C(=O)Nc1ccc2ccccc2c1	i	1	.	?	5	.	-1.4	-7	6	-1.7
COc1ccccc1Nc1cc(N2CCOCC2)c2nonc2c1[N+](=O)[O-]	i	-7	8	-0.7	-3	-9	2.3	7	9	1.3
CCCOc1ccc(C(=O)NNC(=S)NC(=O)CC)cc1	.	35	71	0.5	85*	69	.	.	.	.
COc1cc(NS(=O)(=O)c2ccc(NC(=O)COc3cccc(C)c3)cc2)nc(OC)n1	i	-6	-9	3.1	-2	98*	-21	-11	-13	-5.3
O=C(NCc1ccccn1)c1ccc2nc(C3CCCCC3)oc2c1	i	6	0	-0.9	-2	-1	0.9	-1	-10	-3.7
CCOC(=O)c1c2n(c3c(NCc4ccccc4)ncnc13)CCCC2	.	15	13	0.6	44	.	.	.	.	.
O=C(c1ccc(Cn2cc([N+](=O)[O-])cn2)o1)N1CCCCCC1	i	4	-6	1.6	0	2	-6.8	14	9	6.8
O=c1cc(N2CCCCC2)c(-c2ccccc2)nn1Cc1cccc(F)c1	.	51	5	1.7	6	5	.	.	.	.
COc1cc(/C=C/C(=O)OCC(=O)Nc2ccc(C)c(S(=O)(=O)N3CCCCC3)c2)ccc1O	i	-13	-6	0.7	-6	18	-8.1	-12	-13	29
CC(=O)Nc1ccc(S(=O)(=O)Nc2nc3ccc([N+](=O)[O-])cc3s2)cc1	+	-3	.	-0.9	-3	-8	2.5	4	-3	0.5
COc1ccc2[nH]c(O)c(N=O)c2c1	i	-8	-3	-1.7	1	.	0.9	12	4	-1.3
COC(=O)c1ccc(/C=C/c2c(-c3ccsc3)oc3ccc(N4CCOCC4)cc23)cc1	i	22	0	-1.4	1	-1	-0.1	15	13	1.6
CCc1ccc(NC(=O)CCc2nnc3ccc(N4CCCC4)nn23)cc1	i	9	3	0.6	-10	-2	-4.0	-10	-6	1.3
O=C1CCCC(O)=C1N=Nc1ccc(S(=O)(=O)N2CCOCC2)cc1	i	4	2	1.7	8	-10	3.6	14	10	5.3
CC(OC(=O)Cn1[nH]c(=O)c2ccccc2c1=O)C(=O)Nc1ccc(F)cc1 (centres undefined)	i	-9	-1	-4.1	-8	-1	-2.5	14	11	2.0
COc1cc(OC)cc(C(=O)Nc2ccc(S(=O)(=O)N3CCOCC3)cc2)c1	i	6	-9	4.6	-6	-5	1.2	2	3	0.6
N#CC1=C(N)C(C#N)(C#N)C(c2cccnc2)C2CC(c3ccccc3)CC=C12 (centres undefined)	.	-3	-5	-43	44	-13	.	.	.	.

Complete entries, quoted from the list:
`N#CC1=C(N)C(C#N)(C#N)C(c2cccnc2)C2CC(c3ccccc3)CC=C12` (centres undefined) is entered as FGF22 binding = .; T cruzi repl = -3; Beta apoptosis = -5; RanGTP-Imp inh = -43; Calb FLC = 44; ALR inh = -13; AF4-AF9 inh = .; rRNA inh HTS = .; rRNA inh HTS OD600 = .; rRNA inh HTS RFP = .
`O=c1cc(N2CCCCC2)c(-c2ccccc2)nn1Cc1cccc(F)c1` is entered as FGF22 binding = .; T cruzi repl = 51; Beta apoptosis = 5; RanGTP-Imp inh = 1.7; Calb FLC = 6; ALR inh = 5; AF4-AF9 inh = .; rRNA inh HTS = .; rRNA inh HTS OD600 = .; rRNA inh HTS RFP = .

Single values from the entries so far.
CCCOc1ccc(C(=O)NNC(=S)NC(=O)CC)cc1 | ALR inh: 69
CCS(=O)(=O)N1Cc2ccccc2CC1C(=O)Nc1nc(C)cs1 (centres undefined) | Calb FLC: -14
COc1cc(/C=C/C(=O)OCC(=O)Nc2ccc(C)c(S(=O)(=O)N3CCCCC3)c2)ccc1O | AF4-AF9 inh: -8.1
O=C1CCCC(O)=C1N=Nc1ccc(S(=O)(=O)N2CCOCC2)cc1 | rRNA inh HTS: 14
NC(=O)c1ccc(-c2ccccc2F)cc1 | Beta apoptosis: -6

The results go on.
SMILES	FGF22 binding	T cruzi repl	Beta apoptosis	RanGTP-Imp inh	Calb FLC	ALR inh	AF4-AF9 inh	rRNA inh HTS	rRNA inh HTS OD600	rRNA inh HTS RFP
CC(C)NC(=O)C(=O)NNC(=O)CCc1ccccc1	i	2	-2	2.3	-12	-5	-0.7	8	12	-0.6
CCOC(=O)C1=C(C)Nc2ncnn2C1c1ccc(N(C)C)cc1 (centres undefined)	i	-16	-6	2.0	-3	71	-0.1&4.1	6&8	-1&-1	6.8&1.0
O=[N+]([O-])c1cccc(S(=O)(=O)N2CCN(S(=O)(=O)N3CCCCCC3)CC2)c1	i	-14	-1	-0.4	13	0	-3.5	7	9	-1.8
O=C(Nc1ccc(OCC(=O)N2CCOCC2)cc1)c1ccccc1F	i	-2	2	2.5	-2	1	-2.8	9	13	-0.5
CN1CCN(C(=O)c2c(O)c3cccc4c3n(c2=O)CCC4)CC1	.	-18	0	0.4	0	-4	.	.	.	.
COc1ccc(C(=O)N2CCc3ccccc32)cc1S(=O)(=O)N1CCOCC1	i	.	-1	.	.	-15	-1.5	3	7	1.3
COc1ccccc1NC(=O)COC(=O)[C@@H]1CCCN1C(=O)c1cccs1	.	-13	-3	-1.5	-1	3	.	.	.	.
O=S(=O)(NCc1ccc2c(c1)OCO2)c1cccc2nsnc12	i	-16	-6	-2.6	14	-20	2.3	0	-1	-7.8
Cc1cccc2cc(C#N)c(NCCNC(=O)COc3ccccc3)nc12	i	6	3	20*	19	-15	-2.1	3	-12	-4.1
CCOC(=O)c1ccc(Oc2coc3cc(O)ccc3c2=O)cc1	i	-16	2	3.3	13	-4	2.4	-24	-40	-7.0
Nc1c(C(=O)Nc2ccccc2)sc2nc(-c3cccnc3)ccc12	i	-9	-1	-28	9	-3	-9.9	-1	6	-2.9
COc1ccc(OC)c(C(=O)Nc2ccc3[nH]ccc3c2)c1	i	6	4	-0.3	14	12	1.8	-23*	-2.3*	-3.5*
O=C(Nc1cccs1)OCCN1CCN(Cc2ccccc2)CCC1=O	i	-6	2	0.5	3	12	.	4	1	-0.1
CCCCc1c(CCC)c(=N)c2ccccc2n1C	.	60*	26	-0.7	-2	0	.	.	.	.
OC1(CNCc2ccccc2)C2CC3CC(C2)CC1C3 (centres undefined)	i	-8	-3	7.8	4	-30	-2.2	8	7	2.7
Cc1ccc(CN2C(=O)CCC2C(=O)NCCCN2CCCC(C)C2)cc1 (centres undefined)	.	-1	1	-0.3	-1	-3	.	.	.	.
C/C(=N\NS(=O)(=O)c1ccc(C)cc1)c1cccs1	.	-21	-4	1.6	13	46	.	.	.	.
O=C(Nc1nc2ccccc2[nH]1)c1ccccc1OC(F)F	i	-5	11	0.3	12	1	-0.6	6	7	0.6
Cc1n[nH]c(=O)c2c(NC(=O)CSc3ccc(F)cc3)oc(C)c12	i	-7	-5	-1.9	5	.	-14	10	11	0.6
O=C1CN(C(=O)CN2C(=O)NC3(CCCCC3)C2=O)c2ccccc2N1	i	5	1	-0.3	-4	-5	3.3	11	-7	0.3
c1csc(-c2noc(CN3CCN4CCCC4C3)n2)c1 (centres undefined)	i	20	0	6.6	-8	-2	-2.1	11	6	-0.1
COc1ccc(-c2nnn(CC(=O)N(c3cccc(O)c3)C(C)C(=O)NC3CCCC3)n2)cc1OC (centres undefined)	i	-17	7	-1.4	14	-9	1.9	-19	-27	-4.3
COC(=O)c1ccc(NC(=O)Cc2ccc(F)cc2)cc1	i	-29	-10	-2.8	15	0	0.2	1	15	0.1
CC(NCCOCCOc1ccccc1)c1ccccc1 (centres undefined)	i	29	-5	1.4	8	.	3.4	.	.	.
O=C(Oc1ccc(Cl)cc1)c1ccc(COC(=O)c2cnccn2)cc1	.	-11	-9	0.2	-3	-17	.	.	.	.
New compounds follow:
SMILES	FGF22 binding	T cruzi repl	Beta apoptosis	RanGTP-Imp inh	Calb FLC	ALR inh	AF4-AF9 inh	rRNA inh HTS	rRNA inh HTS OD600	rRNA inh HTS RFP
CC(=O)Nc1ccc(SCC(=O)c2cc(C)ccc2C)cc1	i	-1	1	-3.4	-12	98*	1.0	-11	-26	1.3
NC(=O)COC(=O)CC(NC(N)=O)c1ccc(Cl)cc1 (centres undefined)	i	1	-10	-0.9	-4	-2	5.3	-1	8	1.0
CCN[C@H]1C[C@H](C)S(=O)(=O)c2sc(S(N)(=O)=O)cc21	i	.	-4	.	.	-7	-4.2	.	.	.
CCn1c(CC(=O)Nc2ccc(C)c(Cl)c2)nnc1SCCOc1ccc(OC)cc1	.	-12	-1	0.0	-8	1	.	.	.	.
CC1CCN(Cc2nnnn2CCCC(=O)NC(c2ccccn2)C(F)(F)F)CC1 (centres undefined)	i	-6	.	-1.2	-14	-7	-0.1	4	5	-1.1
O=C(COC(=O)C1CCC(N2C(=O)C3C4CCC(C4)C3C2=O)CC1)c1ccc(F)cc1 (centres undefined)	i	0	-11	0.3	-3	0	-0.6	1	1	-0.8
O=C(c1cc([N+](=O)[O-])cc([N+](=O)[O-])c1)N1CCN(Cc2ccc3c(c2)OCO3)CC1	i	66*	3	-0.1	-4	-201	1.9	9	7	-7.8
N#CCCN1CCN(S(=O)(=O)c2ccc(S(=O)(=O)NC3CC3)cc2)CC1	.	1	2	-2.5	4	-16	-1.5	8	9	0.0
O=[N+]([O-])c1cccc(-c2csc(N/N=C/c3cccc(O)c3)n2)c1	i	?	4	-3.0	2	-31	4.2	-42*	-30*	-11*
Cc1onc(-c2ccccc2)c1C(=O)N1CCN(c2ccc([N+](=O)[O-])cc2)CC1	i	-5	-3	5.6	8	.	0.2	4	9	-0.3
COc1cccc2c(N/N=C/c3ccco3)cc(C)nc12	.	-16	0	0.7	18	91*	0.4	-2	1	-2.5
Fc1ccc(NC(=S)Nc2ccccc2OC(F)F)cc1Cl	.	-15	6	8.4	-2	-2	.	.	.	.
